Screening data as filed in PubChem.
GLA inh pH 4.5 – inhibitors of human alpha-galactosidase A at pH 4.5 | purified enzyme, 4-MU-alpha-Gal fluorescence, pH 4.5 | activity change, negative = inhibition, % at 105 µM | 230,000 tested, under 10 active | AID 1467; inconclusive = small, poorly fitted or top-dose-only inhibition, or a rising curve; inactive = flat fitted curve, though single readings scatter; no compound was filed as active;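 further: 0% = full activity with enzyme and -100% = basal without enzyme; dose as in the result columns while the protocol names 77 µM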
Target sequence (P06280 whole entry, looked up): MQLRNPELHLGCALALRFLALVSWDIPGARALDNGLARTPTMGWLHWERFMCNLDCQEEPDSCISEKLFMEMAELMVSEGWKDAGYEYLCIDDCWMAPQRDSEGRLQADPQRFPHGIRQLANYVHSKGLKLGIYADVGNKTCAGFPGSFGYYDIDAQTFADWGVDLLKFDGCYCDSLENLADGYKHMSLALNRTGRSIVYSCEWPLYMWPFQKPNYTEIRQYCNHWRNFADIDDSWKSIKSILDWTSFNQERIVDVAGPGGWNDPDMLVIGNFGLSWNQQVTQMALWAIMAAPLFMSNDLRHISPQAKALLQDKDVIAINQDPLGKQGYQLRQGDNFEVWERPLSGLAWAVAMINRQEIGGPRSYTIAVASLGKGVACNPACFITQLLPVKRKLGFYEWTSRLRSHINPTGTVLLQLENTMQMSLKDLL
Rango complex inh – Rango-importin beta binding inhibition | Rango CFP/YFP FRET sensor + importin beta, 45 min | Potency, µM (series often up to 92.2 µM), without a hit: top-dose inhibition of complex formation | Q14974 | hit rate 0.031% among 340,000 | AID 540263; active = rising FRET ratio curve, often small or poorly fitted; inconclusive = mostly compound fluorescence or quenching in the first reads; inactive = flat curves in all reads;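 further: potency means the concentration at half of the fitted maximal effect; 0% = DMSO wells and 100% = buffer wells lacking importin beta; nearly all actives have a fitted effect of over 15% in size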
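FRET biosensor (snurportin 1 IBB flanked by EYFP and cerulean), 50 nM, with compound 5 min, then 0.125 microM importin beta in PBS, 1 mM DTT, 0.02% Tween-20, 0.1% BSA. CFP/YFP ratio read after 45 min at room temperature; pre-read flags interference.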
miR-21 FLuc – miR-21 reporter, rising signal; Potency, µM (doses to about 38.3 µM), for the others: top-dose reporter change, positive = more light; 340,000 tested, under 10 active; HeLa miR-21 FLuc reporter, luciferase, 48 h; active = well fitted rising curve with a large enough effect; inconclusive = small, poorly fitted or top-dose-only effect; inactive = no such curve, though single readings can be large or run the other way;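 further: % of control where 0% means no effect; miR-21 action dims this reporter so a rising signal means less miR-21 action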
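HeLa miR-21-FLuc reporter line, endogenous miR-21; 2000 cells/well in DMEM/10% FBS; compound titration up to ~40uM final, 48 h, 37 degree Celsius; luciferase detection reagent, 15 min lysis, CCD luminescence.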
Rango dissoc inh – inhibitors of RanGTP-induced Rango-importin beta complex dissociation | hit rate 0.071% among 340,000 | Biochemical FRET Rango-importin beta, RanGTP-induced dissociation | AID 540253 | Potency, µM (titrated, usually from 46.1 µM), inactives show at the highest dose activity change, negative = inhibition; active means falling FRET ratio curve, often poorly fitted, with flat reads before Ran was added; inconclusive means other falling curves, or compound fluorescence or quenching; inactive means flat or rising ratio curve;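 further: potency means the concentration at half of the fitted maximal effect; % of control where 0% means no effect; nearly all actives have a fitted effect of over 45% in size; -100% = wells without RanGTP and RCC1; the record marks most hits as doubtful in a second field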
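Two FRET readings bracket the reaction: one 5 min after compound meets Rango–importin beta, another 45 min after RanGTP-RCC1 (0.6 uM Ran, 0.2 uM RCC1, 2 mM GTP) is added. Only the second defines inhibition.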
* = called active by the depositor; ? = inconclusive; . = no result given; & = joins results of further samples; [ ] = dose if it differs, or a comment. Some of the compounds tested. The share of hits here may be higher or lower than overall.

SMILES	GLA inh pH 4.5	Rango complex inh	miR-21 FLuc	Rango dissoc inh
O=C(Nc1ccccc1)C1=C(O)CC(c2ccc(Cl)cc2)N2CCN=C12 (centres undefined)	-11.7	-0.1%	-14.1%	-7.0%
CCN(CC)S(=O)(=O)c1cccc(C(=O)Nc2sc3c(c2C(N)=O)CCCC3)c1	11.5	-1.5%	4.4%	4.3%
Cc1ccc(NC(=O)Nc2cc(C(F)(F)F)c[nH]c2=O)cc1	.	-0.5%	-9.4%	11.1%
O=C(CCC(=O)N1CCN(S(=O)(=O)c2ccccc2Cl)CC1)c1ccccc1	.	0.6%	.	-15.4%
Cc1ccc(Nc2nnc(SCc3cc(=O)n4ccsc4n3)s2)c(C)c1	-1.1	2.3%	-34.3%	15.5%
COc1ccc(/C(N)=N/OC(=O)c2ccc3c(c2)OCO3)cc1OC	2.7	0.1%	-31.6%	-3.0%
COc1ccc(NC(=O)Nc2cccc3c2O[C@H](CN(C)S(=O)(=O)c2c(C)noc2C)[C@@H](C)CN([C@H](C)CO)C3=O)cc1	.	-3.5%	.	-7.4%
O=C1/C(=C\c2ccc(O)cc2)CCC1CNc1ccc(Cl)cc1 (centres undefined)	.	?	.	27.1%
COc1cc(OC)cc(N(C(=O)CNC(=O)c2cccs2)C(C(=O)NCC2CCCO2)c2ccccc2)c1 (centres undefined)	.	0.6%	2.0%	-9.6%
Cc1ccc(-c2noc(CCCc3ccccc3)n2)cc1	-7.4	0.9%	-24.3%	17.6%
Cc1cc(NC(=O)c2ccc(Br)c([N+](=O)[O-])c2)no1	-24.4	0.3%	-7.4%	6.4%
Cc1cc(NS(C)(=O)=O)c(=O)n(Cc2cccc(F)c2)c1	.	1.8%	-0.2%	-5.5%
O=C(COc1ccc(S(=O)(=O)N2CCCCC2)cc1Cl)N1CCOCC1	.	0.8%	-0.9%	4.0%
CCC(C(=O)OCC(=O)N(C)c1c(N)n(Cc2ccccc2)c(=O)[nH]c1=O)c1ccccc1 (centres undefined)	.	-0.5%	.	1.4%
O=C(COC(=O)c1cc(S(=O)(=O)N2CCOCC2)ccc1F)NCc1ccc2c(c1)OCO2	.	4.5%	.	0.7%
Cc1ccc(NC(=O)CNC(=O)c2ccco2)cc1Cl	.	-0.3%	-44.1%	17.3%
CNC(=O)/C(=C\c1cccc(Oc2ccccc2)c1)NC(=O)c1ccccc1	-9.0	?	-3.2%	-22.2%
Cc1ccc(N2CC(C(=O)NC3CC3)CC2=O)cc1Cl (centres undefined)	.	0.2%	-4.7%	-26.4%
Brc1ccccc1-c1nnc2sc(-c3ccc4c(c3)OCCO4)nn12	-11.9	-0.7%	15.9%	-11.1%
CCCCC(=O)Nc1ccc(NC(=S)NC(=O)CC(C)C)cc1OC	16.0	0.5%	0.5%	-3.2%

Reformatted with two lines to a compound: part of the list above.
Results follow in this order: GLA inh pH 4.5 | Rango complex inh | miR-21 FLuc | Rango dissoc inh
- Cc1ccc(NC(=O)CNC(=O)c2ccco2)cc1Cl
    . | -0.3% | -44.1% | 17.3%
- CNC(=O)/C(=C\c1cccc(Oc2ccccc2)c1)NC(=O)c1ccccc1
    -9.0 | ? | -3.2% | -22.2%
- Cc1ccc(N2CC(C(=O)NC3CC3)CC2=O)cc1Cl (centres undefined)
    . | 0.2% | -4.7% | -26.4%
- Brc1ccccc1-c1nnc2sc(-c3ccc4c(c3)OCCO4)nn12
    -11.9 | -0.7% | 15.9% | -11.1%
- CCCCC(=O)Nc1ccc(NC(=S)NC(=O)CC(C)C)cc1OC
    16.0 | 0.5% | 0.5% | -3.2%

Next results
SMILES	GLA inh pH 4.5	Rango complex inh	miR-21 FLuc	Rango dissoc inh
CN(C)S(=O)(=O)c1cccc(NC(=O)COC(=O)c2cccn2C)c1	1.6	0.3%	-9.2%	-16.9%
Cc1ccc(-n2c(Cc3noc4ccccc34)n[nH]c2=S)cc1	20.7	1.3%	2.7%	1.5%
CS(=O)(=O)Nc1ccccc1C(=O)NCCSc1ccccc1	.	-2.3%	5.7%	-3.5%
FC(F)(F)c1ccc(/C=N/n2c(COc3ccccc3)n[nH]c2=S)cc1	.	0.4%	-4.3%	10.7%
Cc1cccc(N2CCN(C(=O)CN(C)S(=O)(=O)c3ccc4c(c3)CCC(=O)N4)CC2)c1C	-1.7	-3.1%	-2.5%	-19.5%
O=[N+]([O-])c1nn(-c2ccc3c(c2)OCCO3)n(O)c1=NCc1ccc(F)cc1	3.7	2.8%	-60.6%	-8.8%
Cc1cc(OCCOCCN(C)C)ccc1Cl	-2.1	0.6%	-1.2%	-0.6%
CCCN=C1N(C)C[C@@H]2[C@@H]3C(=O)N(C)C(=O)[C@@H]3[C@](CC)(C(=O)OC)N12	.	-0.8%	.	?
Cc1nn(-c2ccc(Cl)cc2)c(=O)c2c(C)noc12	2.0	0.0%	-5.2%	1.5%
COc1ccc(OC)c(C(=O)NC2CCSc3ccccc32)c1 (centres undefined)	.	-3.9%	-7.8%	-9.0%
Cc1ccc(N=C(N(C)C)P(=O)(N(C)C)N(C)C)c(C)c1	6.3	2.7%	-3.1%	9.1%
COc1ccc(CCNC(=O)c2cccc(S(=O)(=O)NC(C)c3ccccc3)c2)cc1 (centres undefined)	.	1.4%	.	1.6%
Cn1cnnc1SC(C(=O)Nc1ccc(F)cc1)c1ccccc1 (centres undefined)	4.4	0.6%	-4.2%	0.7%
CCC1(C)Cc2c(sc3c2c(=O)n(C)c2nnc(SCc4ccccc4)n32)CO1 (centres undefined)	-11.8	1.5%	-7.2%	23.6%
CC1=CC(C)(C)NC(=S)N1c1ccc(N(C)C)cc1	.	0.7%	.	-4.3%
Cc1ccc(Sc2sc(=O)n(C)c2S(=O)(=O)c2ccc(C)cc2)cc1	-14.5[21.1 µM]	0.1%	0.7%	-5.0%
COc1ccc(NC(=O)N2CCCCC2c2cccnc2)cc1 (centres undefined)	.	-5.2%	-18.6%	10.4%
CSCCC(NS(=O)(=O)c1ccccc1F)C(=O)Nc1cccc(C)n1 (centres undefined)	.	-2.5%	-1.6%	12.7%
Cn1c(=O)cc(SCC(=O)Nc2cccnc2)c2ccccc21	5.1	-0.2%	-0.2%	-3.4%
Cc1ccc(C2=NS(=O)(=O)N(C)C(C(=O)NC3CCCCC3)=C2)cc1	.	2.3%	4.0%	-17.8%
O=C1CCCN1CC1CCN(Cc2nc(CC3CC3)no2)CC1	-13.0	-0.9%	-9.0%	6.8%
O=C(Nc1cccc(Cl)c1N1CCOCC1)c1ccc([N+](=O)[O-])o1	-1.0	-0.5%	5.7%	-0.9%
Cc1ccc(CS(=O)(=O)CCC(=O)NCc2cccs2)cc1	5.6	4.0%	-1.8%	-8.0%
COc1ccc(/C(=N/OC(C)=O)c2nccc3cc(OC)c(OC)cc23)cc1OC	-1.8	1.5%	-5.6%	1.4%
O=C(CSc1nc2c(sc3ccccc32)c(=O)n1CCO)NCC1CCCO1 (centres undefined)	-4.4	-0.5%	-1.1%	-10.3%
CN1C(=S)SC(N(O)C(=O)Nc2cccc3ccccc23)C1(C)C (centres undefined)	1.6	0.1%	2.3%	-21.3%
CCOC(=O)C1=C(COC(=O)COc2ccc(C(C)=O)cc2)NC(=O)NC1C (centres undefined)	.	-3.2%	.	1.7%
COc1cc(C(=O)OCCNC(=O)c2ccncc2)cc(OC)c1OC	0.5	4.0%	1.0%	3.1%
O=C(CN1C(=O)NC2(CCc3ccccc32)C1=O)NCc1ccc(F)cc1 (centres undefined)	.	-4.4%	.	-19.1%
COc1ccc(/C(C)=N\NC(=O)CNC(=O)C(c2ccccc2)c2ccccc2)cc1OC	.	-1.7%	-3.5%	-2.0%
COc1c(Cl)cccc1-c1cn2ccccc2n1	-1.7	-4.3%	-33.8%	14.9%
CCOc1c(Cl)cc(CNCc2ccccn2)cc1OC	-1.5	-5.0%	-10.9%	-0.5%
N#Cc1ccccc1NC(=O)c1ccc(-c2ccccc2Cl)o1	15.0	0.0%	-41.0%	?
COc1ccc(-c2csc(NC(=O)C3CC(=O)N(Cc4ccco4)C3)n2)cc1 (centres undefined)	1.3	0.8%	2.0%	-9.6%
O=C(Nc1nnc(C2CC2)o1)c1ccc(S(=O)(=O)N2CCCCC2)cc1	.	0.2%	13.2%	4.5%
O=C(Nc1ccc(Cl)c(S(=O)(=O)N2CCCC2)c1)c1cc(=O)[nH]c2ccccc12	.	-1.0%	.	-11.5%
COc1ccc(C(NC(=O)c2ccco2)c2ccc(OC)c(OC)c2)cc1OC	6.1	-0.8%	-10.3%	-8.2%
CCOc1cc(NC(=O)C(C)C)c(OCC)cc1NC(=O)Nc1ccccc1	.	?	-0.4%	?
CCCn1c(SCC(=O)NC2CCCCC2)nnc1-c1ccncc1	-10.2	?	0.3%	-3.2%
CC1(C)OC(C)(C)/C(=C/Nc2ccc(O)cc2)C1=O	-17.2	-3.8%	-5.3%	1.2%
COc1ccccc1N1CCN(C(=O)c2cc3cc(F)ccc3[nH]2)CC1	.	-0.8%	-4.9%	10.4%
O=C(CSc1nnc2ccccn12)NCCc1ccc(Cl)cc1	5.9	0.4%	0.4%	-0.3%
Cc1ccc(C(=O)Nc2c(-c3cccs3)c(=O)c3ccccc3n2C)cc1	6.6	-5.8%	-1.0%	21.2%
COC(=O)c1ccc(C2C3=C(Nc4nnnn42)c2ccccc2OC3)cc1 (centres undefined)	1.8	?	-16.9%	-15.2%
C/C(N)=C(/C#N)C(=O)COC(=O)CNS(=O)(=O)c1ccc(F)c(F)c1F	-1.3	-1.2%	-7.4%	7.0%
COc1ccc(-c2cc3c(=O)n(CC(=O)N4CCN(C)CC4)ncn3n2)cc1	.	-0.8%	-4.5%	0.8%
Cc1oc(-c2ccc(Cl)cc2)nc1CS(=O)CC(=O)NC1CCCCC1 (centres undefined)	.	10.2%	-10.5%	1.3%
CCOC(=O)C(C)Sc1nc(-c2ccc(OC)cc2)nc2c1c(=O)n(C)c(=O)n2C (centres undefined)	4.8	.	-4.1%	.
OCC[C@@H]1C[C@@H](O)[C@H](O)[C@@]2(Cc3ccccc3CCO2)O1	.	?	-0.3%	-6.6%
CCOC(=O)Cc1ncccc1C(=O)Nc1ccc(Oc2ccccc2)cc1	-28.8	0.6%	0.6%	3.5%
Next section:
SMILES	GLA inh pH 4.5	Rango complex inh	miR-21 FLuc	Rango dissoc inh
N=c1c(C(=O)NCCc2ccccc2)cc2c(=O)n3ccccc3nc2n1CCCN1CCOCC1	.	?	6.8%	?
CC1CCN(C(=O)CN2C(=O)NC3(CCCCCC3)C2=O)CC1	.	0.4%	.	-6.3%
CC(C)(C)c1ccc(OCC(=O)N/N=C/c2cc(Br)ccc2OC(=O)c2ccco2)cc1	6.9	2.7%	-4.3%	7.3%
N#CCC(=O)Nc1ccc(C(=O)NNC(=O)c2ccccc2-n2cccc2)cc1	.	0.2%	.	-10.4%
O=C(CSc1nnnn1Cc1ccccc1)c1ccccc1	2.2	?	-43.5%	16.9%
COc1ccc(NC(=O)CSc2ccc(F)cc2)cc1S(=O)(=O)N1CCCCC1	-3.0	5.2%	17.8%	-17.8%
Cc1nn(C)c(Oc2ccc(Cl)cc2)c1C(=O)O	0.0	1.9%	-8.7%	21.7%
COc1ccc(NC(=O)c2sc3nc(N4CCOCC4)c4c(c3c2N)CC(C)(C)OC4)c(OC)c1	.	3.8%	-6.2%	18.7%
CSc1ncccc1C(=O)N1CCN(S(=O)(=O)c2ccc3c(c2)OCCO3)CC1	.	0.5%	.	17.5%
Clc1ccc2c(c1)CCc1cccnc1C2=C1CCNCC1	-3.3&-3.2&3.2	.	15.6%&14.6%	.
O=C(COC(=O)/C=C/c1ccc(S(=O)(=O)N2CCOCC2)cc1)NCc1ccccc1	-1.2	1.5%	2.1%	3.6%
CCOc1cc(/C=N/NC(=O)C(C)Sc2ccccn2)ccc1O (centres undefined)	4.4	-1.0%	-1.6%	-1.5%
COc1ccc(OC)c(C(=O)COC(=O)C(CCSC)NC(=O)COc2ccccc2)c1 (centres undefined)	.	5.5%	.	-11.9%
O=Cc1c(Nc2cccc(C(F)(F)F)c2)nc2ccccn2c1=O	.	-1.1%	-0.6%	2.5%
